Bioassay records (PubChem BioAssay)
gsp agonist: gsp mutant agonism; gsp mutant cells, cAMP HTRF, 30 min; control for the full effect not named in the record; Potency, µM (titrated, usually from 76.9 µM), inactives show at the top dose activation (cAMP increase), usual class: activators; 340,000 compounds, 0.13% hits; AID 624287; active = well fitted activation curve with a large enough effect; inconclusive = small, poorly fitted or top-dose-only effect, or another doubt; inactive = no such curve, though single readings can be large or run the other way; cell line not stated here;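 also: phosphodiesterase inhibitor Ro 20-1724 added with compounds to block cAMP breakdown; potency is read from the fitted curve at half-maximal effect; nearly all actives have a fitted effect of over 60% in size; about a fifth of the inactives were tested at one dose only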
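Cells stably selected in G418 were plated at 2000/well, grown 16-24 hr, then given compounds in DMSO with the PDE inhibitor […] (300 uM solution added) for 30 min at 37C; cAMP was read by HTRF.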
Menin MLL FP FL: displaces fluorescein MLL peptide from human menin; Fluorescence polarization, fluorescein-MLL peptide displacement from menin; 290,000 tested, under 10 active; FP activity change, % at 61.4 µM; inconclusive = falling polarisation curve, or a change in total fluorescence; inactive = total fluorescence flat and polarisation flat or rising; no compound was filed as active; the % refers to the polarisation; negative = inhibition;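 also: % of control where 0% means no effect; inhibitors lower the polarisation; unlabelled MLL peptide was the positive control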
Sfp PPTase inh: inhibitors of Bacillus subtilis Sfp phosphopantetheinyl transferase; Q9F4F7; Biochemical Sfp PPTase activity, qHTS; Potency, µM, for inactives: max response, negative = inhibition, usual class: inhibitors; 310,000 compounds, 3.5% hits; AID 1490; active = well fitted inhibition curve with a large enough effect; inconclusive = small, poorly fitted or top-dose-only effect, or another doubt; inactive = no such curve, though single readings can be large or run the other way;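 also: the enzyme is Sfp with the accession as filed and its product quenches rhodamine fluorescence; potency is read from the fitted curve at half-maximal effect; 0% = enzyme reaction without inhibitor and -100% = no enzyme wells; top concentration of the series not given in the record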
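Fluorescence-quenching assay with 15 nM Sfp, 5 uM rhodamine-CoA and 12.5 uM BHQ-2-labelled ybbR peptide in pH 7.6 Hepes/MgCl2 buffer. Enzyme was pre-incubated with compound for 15 min at room temperature. Rate was taken from the 30-min fluorescence change (525/598 nm).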
ClpP mod: qHTS Assay for Activators of ClpP | 340,000 compounds, 1.9% hits | Potency, µM (highest dose often 57.5 µM), without a hit: top-dose activity change, negative = active | ATP-dependent Clp protease proteolytic subunit (Bacillus subtilis (strain 168)), P80244 | AID 651965, 2013 | purified B. subtilis ClpP, FRET peptide cleavage, 20 min; active = well fitted falling curve with a large enough effect; inconclusive = small, poorly fitted or top-dose-only effect; inactive = no such curve, though single readings can be large or run the other way; also: potency is read from the fitted curve at half-maximal effect; the source files actives as falling curves though it sought activators and does not explain the sign; nearly all actives have a fitted effect of over 65% in size; many hits overshoot -100%
Target sequence (P80244 whole entry, looked up): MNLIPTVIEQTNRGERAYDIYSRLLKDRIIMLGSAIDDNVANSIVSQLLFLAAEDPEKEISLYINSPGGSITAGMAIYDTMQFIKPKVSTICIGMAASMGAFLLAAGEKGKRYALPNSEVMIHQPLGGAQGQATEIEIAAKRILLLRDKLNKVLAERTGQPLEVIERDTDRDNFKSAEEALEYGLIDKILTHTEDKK
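Purified B. subtilis ClpP, 10 microg/mL final in Tris/HCl pH8 with KCl, BSA, glycerol and Tween-20, cleaved an Abz/nitrotyrosine-quenched decapeptide. Fluorescence (ex 320, em 430) was read at 0 and 20 min at room temperature. Delta was normalized to 5.8 microM ADEP and DMSO/no-enzyme controls.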
gsp antagonist: antagonizes gsp, the McCune-Albright syndrome mutation. gsp-mutant cells, cAMP HTRF, 30 min; control for the full effect not named in the record. Potency, µM (doses to about 76.9 µM), for the others: at the top dose activity change, negative = inhibition, hits mostly inhibitors. 340,000 compounds, 0.4% hits; active = falling curve of any shape with a large fitted effect; inconclusive = falling curve, mostly with a smaller effect; inactive = flat or rising curve; cell line not stated here;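 also: intracellular cAMP measured with PDE inhibitor Ro 20-1724 present during compound exposure; potency is read from the fitted curve at half-maximal effect; % is scaled to controls: 0 for no effect and ±100 for the full control effect; nearly all actives have a fitted effect of over 65% in size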
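Cells in G418 medium, seeded 16-24 h, 37C; buffer exchange to DPBS + 1 mM CaCl2, 0.5 mM MgCl2, 0.05% BSA; cpds in DMSO + […] (300 uM stock), 30 min 37C; HTRF cAMP detection.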
CtBP-E1A blk: CtBP/E1A binding inhibition | activity change, % (concentration not given with the values) | AID 651724 | AlphaScreen GST-E1A/His-CtBP binding, 1536-well; stronger effect = lower value; control for the full effect not named in the record | 340,000 compounds, 0.49% hits; in the data active means activity change below about -65%; inconclusive means about -30% to -65%; inactive means above about -30%; also: % is scaled to controls: 0 for no effect and ±100 for the full control effect
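Steps: dispense buffer (Tris pH 8.0, NaCl 300 mM, TCEP 1 mM, BSA, Tween 20); add 5X protein mix (GST-E1A, His-CtBP, 125 nM each); pin 23 nL compound; 2 h at 37 °C, dark; add 5X beads (50 ug/mL); 1 h; read.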
TRPV1 potentiator: potentiators of human vanilloid receptor 1 (TRPV1); Q8NER1; TRPV1-expressing cells, Fluo-8 calcium influx, capsaicin EC20 potentiation; host cell line not named in the record; control for the full effect not named in the record; potentiation, % at 8.33 µM; 320,000 compounds, 0.02% hits; active means potentiation above 80%; inconclusive means 30% to 80%; inactive means below 30%; also: 0% is about no effect
Target sequence (Q8NER1 whole entry, looked up): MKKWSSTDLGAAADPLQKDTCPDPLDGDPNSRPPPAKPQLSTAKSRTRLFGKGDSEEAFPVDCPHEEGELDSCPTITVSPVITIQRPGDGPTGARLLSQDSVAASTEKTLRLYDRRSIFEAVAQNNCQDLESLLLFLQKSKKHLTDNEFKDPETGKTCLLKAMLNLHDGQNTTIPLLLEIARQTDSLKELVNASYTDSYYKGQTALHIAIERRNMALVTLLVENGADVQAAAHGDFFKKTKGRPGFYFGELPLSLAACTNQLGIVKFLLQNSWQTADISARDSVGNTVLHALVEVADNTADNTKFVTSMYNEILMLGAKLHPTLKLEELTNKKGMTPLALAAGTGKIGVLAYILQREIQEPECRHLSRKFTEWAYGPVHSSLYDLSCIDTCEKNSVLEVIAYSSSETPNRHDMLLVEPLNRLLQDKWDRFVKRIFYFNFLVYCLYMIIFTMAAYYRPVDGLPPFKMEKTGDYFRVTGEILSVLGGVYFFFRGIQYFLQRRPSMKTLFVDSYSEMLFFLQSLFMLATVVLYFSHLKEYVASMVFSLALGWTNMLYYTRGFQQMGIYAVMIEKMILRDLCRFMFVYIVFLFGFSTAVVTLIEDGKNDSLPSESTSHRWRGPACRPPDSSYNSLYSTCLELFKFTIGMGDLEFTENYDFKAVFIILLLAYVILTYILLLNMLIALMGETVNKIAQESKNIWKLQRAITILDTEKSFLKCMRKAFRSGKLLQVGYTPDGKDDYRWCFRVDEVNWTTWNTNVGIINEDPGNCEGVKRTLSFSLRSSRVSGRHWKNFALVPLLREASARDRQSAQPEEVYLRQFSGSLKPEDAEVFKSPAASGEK
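Fluo-8 calcium influx in TRPV1-expressing cells, kinetic read (ex 480/em 520 nm). Compound added and read 3 min for agonist activity, followed by capsaicin at EC20 final and 2 min further read for enhancement.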
An asterisk follows results filed as active; ? = inconclusive; . = not tested or not shown; & = joins results of further samples; [ ] = remark or other dose.

SMILES,gsp agonist,Menin MLL FP FL,Sfp PPTase inh,ClpP mod,gsp antagonist,CtBP-E1A blk,TRPV1 potentiator
CCN(CC)c1ccc(NC(=O)C(C)C)cc1,-1%,-2.1,-1%,-0.5%,-7%,3,-20
CCCCCN(C(=O)CCC(=O)OC(C)C(=O)Nc1cccc(C#N)c1)c1c(N)n(CCCC)c(=O)[nH]c1=O (stereo not given),-17%[15.4 µM],.,.,.,6%,7,25
CCC(C)NC(=O)c1c(N)n(/N=C/c2cccnc2)c2nc3ccccc3nc12 (stereo not given),15%,0.2,?,25µM*,-9%,-10,-5
CCCNC(=O)C(Cc1cccc(C#N)c1)NC(=O)c1cccc([N+](=O)[O-])c1 (stereo not given),.,.,.,-2.4%,7%,-8,5
O=C(NCCOc1ccccc1)C(=O)c1c[nH]c2ccccc12,34%,2.7,-9%,-1.4%,1%,.,-3
Cc1ccc(Cn2ccc(NC(=O)c3cc(C)on3)n2)cc1,1%,-0.3,19%,0.3%,6%,1,-2
N#C/C(=C\c1cccc(Cl)c1)C(=O)c1ccccc1,-21%,1.9,?,-19%,-6%,.,11
Cc1ccccc1C(=O)NC(CC(C)C)C(=O)NCC(C)(C)N1CCOCC1 (stereo not given),?,.,.,-2.1%,-10%,1,.
O=C(CCc1c[nH]c2ccccc12)NCCc1ccc2c(c1)OCCO2,16%[15.4 µM],.,4%,.,19%,0,-6
O=C(CNC(=O)c1ccc(Cl)cc1Cl)NCC1CCCO1 (stereo not given),17%[15.4 µM],1.0,17%,.,6%,4,12
O=S(=O)(NCc1csc(-c2cccnc2)n1)c1ccc2c(c1)OCCO2,-36%[inhibitor],-0.2,16%,-5.2%,4%,4,-2
COc1ccc(N2CC(C)Cn3c2nc2c3c(=O)n(CCN3CCOCC3)c(=O)n2C)cc1 (stereo not given),9%,-0.1,11%,-6.2%,-5%,-2,-4
Cn1c(=O)c2c(SCC(=O)N3CCCCC3)nc(-c3ccccc3F)nc2n(C)c1=O,-3%[15.4 µM],.,6%,-2.4%,0%,0,2
Cc1cnc(C(=O)OCC(=O)NC2CCCCCC2)cn1,-34%[inhibitor],5.9,-1%,.,10%,4,3
FC(F)(F)c1nnc2ccc(NCc3cccnc3)nn12,?,-0.5,26%,.,9%,1,13
O=C(Nc1cc(-c2ccccc2)sc1C(=O)O)c1cccc(F)c1,18%,7.5,0%,-7.5%&-2.5%,?,.,-3
Cc1noc(C)c1CSc1nc2ccccc2[nH]1,-2%,0.9,8%,-0.9%,-9%[15.4 µM],-2,?
COc1ccc(C(C#N)N2CCCCCC2)cc1OC (stereo not given),-1%,-0.1,2%,-4.4%,13%,6,-3
Cc1ccc(S(=O)(=O)NCCC(=O)NC2CCCCCC2)cc1C,0%,.,.,1.3%,1%,8,.
COc1ccc(C2CC(=O)C=C(NCc3ccc4c(c3)OCO4)C2)cc1 (stereo not given),-4%,-1.8,5%,-3.8%,-4%,.,-5
Cc1cc(=O)n(CNC(=O)c2ccccc2)c(=S)[nH]1,14%,0.1,11%,-1.1%,6%,-3,1
COc1ccc(Cn2c(O)cc(=O)[nH]c2=O)cc1,-4%,?,45µM*,-0.6%,-11%,10,14
CCOC(=O)c1sc(NC(=O)c2ccc3nc[nH]c3c2)nc1C,-1%[15.4 µM],-7.6,0%,.,-9%,-1,-6
COc1ccc(NC(=O)CCCSc2nc(-c3ccco3)cc(C(F)(F)F)n2)cc1OC,18%,-1.7,12%,-0.3%&-2.8%,-2%,-9,-10
CC(=O)N1c2ccc(S(=O)(=O)N3CCCC(C(=O)Nc4ccc(F)cc4)C3)cc2CC1C (stereo not given),-3%,0.5,7%,-4.3%,-27%,-22,4
CCOC(=O)c1cc(C)nc(N2CCCCC2)c1C#N,21%,3.7,-1%,-2.3%,-13%,.,-2
Cc1ccc(OCC(=O)NCc2n[nH]c(=O)c3ccccc23)cc1,4%,.,.,-1.8%,-3%,-3,-5
CCn1c(Cn2nnc(-c3ccccc3)n2)nnc1SCC(=O)Nc1ccccc1,-27%,-0.7,14%,-8.7%,0%,7,13
Cc1ccc2cccnc2c1N,16%[15.4 µM],-4.1,-9%,-3.4%,-3%,8,16
N#Cc1ccc(NC2c3ccccc3CC2O)cc1 (stereo not given),-22%,.,.,-7.0%,1%,0,.
CCOC(=O)c1sc(-c2cccs2)nc1C,-16%[15.4 µM],-0.4,-3%,13%,3%,31,-13
NC(=O)c1cc2cc(Cl)ccc2oc1=O,?,1.5,11%,?,0%,1,2
CCc1ccc(CN2CCN(S(=O)(=O)Cc3ccccc3)CC2)cc1,-18%,5.2,-15%,-3.1%,4%,7,-20
O=S(=O)(NCCOc1ccccc1F)c1cccc(Br)c1,-19%,.,.,-1.8%,4%,3,-17
O=C(O)c1ncn(Cc2ccccc2)c1C(=O)O,22%,-0.7,50µM*,0.1%,10%,?,28
CNc1nc(N(C)C)nc(N(C)C)n1,.,-4.1,23%,-0.5%,2%,7,-7
Cc1nnc(SCC(=O)N2CCCC2)n(N)c1=O,4%[15.4 µM],-6.5,-22%,-1.4%,8%,-15,-4
C=C(C)[C@H]1CC=C(C)C(=O)C1,.,?,12%,0.5%,4%,4,-11
O=C(c1cc(-c2ccco2)on1)N1CCc2ccccc2C1,-28%,?,45µM*,-5.7%,4%,0,4
COc1cc(NC(=S)NCCc2ccccc2)c(OC)cc1NC(=O)CC(C)C,-1%,-2.4,-2%,-1.0%,?,-6,-4
C/C(CC(C)C)=N\Oc1nc(C)cc(C)n1,-20%,1.3,?,.,7%,-1,-9
CCN(CC)CCCN1C=C2C(=O)C(C)(OC(=O)CCC(=O)OC)C(=O)C(Br)=C2C=C1c1ccc(OC)cc1 (stereo not given),.,7.6[11.7 µM],-21%,-9.1%,-4%,-1,.
O=c1c(-c2ccc(Br)cc2)[n+]([O-])c2ccccc2n1OCc1ccccn1,11%[15.4 µM],2.2,0%,.,-47%,.,5
N#Cc1cc(Oc2ccc3ccccc3c2)c(-n2nnc3ccccc32)cc1C#N,-14%,0.6,9%,-28%,-17%,0,-2
C=CCn1cccc(C(=O)Nc2ccc(SC)cc2)c1=O,6%,0.9,1%,0.2%,-4%,1,6
O=c1c2c(nc3n1CCCCC3)sc1c(O)cccc12,1%,-1.2,-9%,0.8%,15%,-4,11
CCOc1ccc(NC(=O)CCN2CCN(c3ccccc3OC)CC2)cc1,27%,1.2,-4%,-2.5%,5%,0,-8
CCCCCSc1nnc(-c2ccccc2N)c(=O)[nH]1,?,6.8,7%,?,-2%,4,15
O=[N+]([O-])c1ccc(N/N=C/c2cccc(O)c2O)c(S(=O)(=O)N2CCOCC2)c1,16%,0.4,-6%,-1.2%,?,-4,1
CC(C)c1ccc(N(C(=O)c2snc(C(N)=O)c2N)C(C(=O)NCC2CCCO2)c2ccc(N(C)C)cc2)cc1 (stereo not given),-1%[15.4 µM],-6.2,3%,-0.5%,?,20,-13

More structures follow:
SMILES,gsp agonist,Menin MLL FP FL,Sfp PPTase inh,ClpP mod,gsp antagonist,CtBP-E1A blk,TRPV1 potentiator
O=C(CCCc1cccs1)NCCc1c[nH]c2ccccc12,-16%,5.5,8%,-4.3%,-3%,.,19
COc1ccc(-n2nc(C(=O)NCC(=O)Nc3ccccn3)c3ccccc3c2=O)cc1Cl,?,0.3,?,?,-15%,3,.
O=C(NCC1CCCO1)c1ccccc1NS(=O)(=O)c1cccs1 (stereo not given),2%[15.4 µM],-5.3,24%,.,-7%,-1,5
CCOC(=O)Cc1cc(=O)[nH]c(/N=C(/NC(=O)c2ccccc2)Nc2ccccc2C(F)(F)F)n1,22%,-0.1,8%,-0.8%,2%,-4,0
CC(=O)N1N=C(c2cccc(O)c2)CC1c1cccs1 (stereo not given),8%,-1.0,5%,0.0%,-10%,11,10
CCn1cc(C(=O)NCCCN2CC(C)CC(C)C2)c(=O)c2cc(S(=O)(=O)N(C)C)ccc21 (stereo not given),-50%[inhibitor],4.0,17%,-1.4%,7%,0,-1
COc1ccc(NC(=O)C2CCN(S(=O)(=O)c3cccs3)CC2)cc1OC,-10%,.,.,-0.3%,-3%,.,-14
COc1ccccc1-n1c(SCC(N)=O)nnc1-c1ccc(S(=O)(=O)N2CCCCC2)cc1,-31%,-0.7,20%,-2.4%,-1%,4,?
CN(C)CCCN1C(=O)C(=O)/C(=C(/O)c2ccncc2)C1c1cccnc1 (stereo not given),-31%[inhibitor],1.0,11%,-1.3%,2%,0,-3
COc1ccc(CN2CCc3ccc(NC(=O)CCc4ccccc4OC)cc3C2)c(O)c1,-33%[inhibitor],0.3,4%,.,-20%,0,9
O=c1c2c3c(sc2nc2sc(CN4CCCCC4)cn12)CCCC3,.,1.9,3%,.,.,.,0
Cc1oc(C)c2c(=O)ccc3c(c12)OC(N)=C(C#N)C3c1ccccc1Cl (stereo not given),-25%,?,50µM*,-3.6%,-5%,-9,12
CNS(=O)(=O)c1cccc(C(=O)OCC(=O)N(Cc2ccccc2)C(C)(C)C)c1,8%,2.0,5%,.,-9%,2,-2
C=CCn1c2ccccc2c2nnc(SCN3C(=O)c4ccccc4C3=O)nc21,?,3.2,3%,-3.7%,-4%,-6,6
Cc1cc2nc(C)c3c(n2n1)CCC3,2%[15.4 µM],-0.1,9%,.,-4%,-3,-2
COCCOC(=O)C1=C(C)N=C2SCCC(=O)N2C1/C=C/c1ccccc1 (stereo not given),-3%,1.5,5%,-0.6%,3%,-10,-5
O=C(CSc1nnc(CNC(=O)c2cccc(C(F)(F)F)c2)o1)NC1CCCC1,25%,.,6%,2.4%,9%,-5,-7
CCOC(=O)/C=C/c1ccccc1S(=O)(=O)NC(C)(C)C,-15%,.,.,-0.7%&-2.3%,2%,2,.
